eIF4H inh = inhibitors of RNA binding by human eIF4H. Q15056. eIF4H fluorescence polarization binding assay. inhibition, % at 35 µM. actives 0.94% (n = 290,000);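 active means 50% or more with normal probe brightness, or confirmed in later tests; about a fifth of its hits are not listed in these tables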;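 further: calls also rest on retests at 20 µM and on dose response follow-up; 0% = protein and probe with vehicle and 100% = probe without protein; strong numbers were not always called active; many hits fall short of the cut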
PABP FP inh = PABP-poly(A) binding inhibition; P11940; PABP-poly(A) RNA binding, fluorescence polarization; inhibition, % at 35 µM; actives 1% (n = 290,000); AID 2014;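 active means 50% or more with normal probe brightness, or confirmed in later tests; about a fifth of its hits are not listed in these tables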;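 further: calls also rest on retests at 20 µM and on dose response follow-up; controls were probe without protein and protein plus probe with vehicle; some compounds called inactive have numbers as strong as hits; many hits fall short of the cut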
Target sequence (P11940 whole entry, looked up): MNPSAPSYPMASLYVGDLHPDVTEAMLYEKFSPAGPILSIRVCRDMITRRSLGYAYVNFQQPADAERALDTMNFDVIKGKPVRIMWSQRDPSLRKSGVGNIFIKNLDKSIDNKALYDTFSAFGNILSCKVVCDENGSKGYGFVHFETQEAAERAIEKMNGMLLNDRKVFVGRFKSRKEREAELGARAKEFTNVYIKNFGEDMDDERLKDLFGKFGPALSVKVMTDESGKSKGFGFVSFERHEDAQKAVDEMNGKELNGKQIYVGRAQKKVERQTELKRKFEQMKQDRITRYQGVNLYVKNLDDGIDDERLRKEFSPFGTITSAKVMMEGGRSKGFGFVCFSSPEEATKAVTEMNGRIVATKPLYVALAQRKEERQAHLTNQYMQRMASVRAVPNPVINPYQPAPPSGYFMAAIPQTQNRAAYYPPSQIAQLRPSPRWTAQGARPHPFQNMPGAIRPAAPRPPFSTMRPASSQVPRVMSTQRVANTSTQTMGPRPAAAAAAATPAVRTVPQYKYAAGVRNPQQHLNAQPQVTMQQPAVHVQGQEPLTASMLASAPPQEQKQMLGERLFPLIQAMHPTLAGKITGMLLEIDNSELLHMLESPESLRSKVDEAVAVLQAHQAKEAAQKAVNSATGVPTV
Env fusion inh = inhibitors of HIV Env-mediated cell fusion | actives 1.1% (n = 360,000) | HeLa-JRFL Env/CEM21 cell fusion, luciferase | inhibition, % at 12.3 µM;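 active means mean replicate inhibition score of at least 50 and every replicate individually at or above 50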;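 further: 0% = plate neutral controls and 100% = maraviroc near 300 nM; one replicate is shown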
CSC inhib = blocks cancer stem cells | cancer stem cell-like cells viability, luminescence | inhibition, % at 7.5 µM | actives 1.1% (n = 300,000) | AID 2717;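 active means mean at 75% or more and at least half the replicates too; tested in HMLE shEcad cells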;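 further: 0% = median of negative and 100% = median of positive control wells; the first replicate is given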
Rce1 inh = inhibitors of yeast Ras-converting enzyme | Q03530 | yeast membranes, quenched prenylated peptide cleavage fluorescence | calls only | actives 0.27% (n = 290,000) | AID 2563;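 active means fall in fluorescence gain of 50% or more versus controls, with final raw signal at or below 3038400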;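 further: plate controls were neutral control wells for no effect and wells lacking membranes for full effect; tested at 10 µM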
Target sequence (Q03530 whole entry, looked up): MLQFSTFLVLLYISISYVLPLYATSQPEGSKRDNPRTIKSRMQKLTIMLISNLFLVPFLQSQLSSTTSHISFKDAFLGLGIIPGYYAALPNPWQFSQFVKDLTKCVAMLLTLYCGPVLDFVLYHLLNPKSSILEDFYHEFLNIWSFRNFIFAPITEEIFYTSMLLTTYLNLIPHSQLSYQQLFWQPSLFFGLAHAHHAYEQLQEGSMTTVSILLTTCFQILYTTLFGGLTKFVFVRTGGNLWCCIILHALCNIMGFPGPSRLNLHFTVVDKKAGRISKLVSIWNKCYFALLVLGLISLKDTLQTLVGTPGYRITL
Yeast UUG start = modulators of start codon recognition fidelity in yeast; S. cerevisiae UUG-firefly luciferase reporter, luminescence/redox ratio; activity score, % at 18.7 µM; actives 0.13% (n = 350,000); AID 602363;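 active means replicate mean at a twofold rise or more, about +100% in these data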;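 further: firefly luciferase made from a UUG start codon reports start codon fidelity; reporter light over untreated wells divided by growth signal over untreated wells; some hits fall short of that in this replicate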
MT1-MMP act inh = blocks activation of human MT1-MMP | HT1080 RFP-PRO-GFP cells, GFP/RFP ratio fluorescence, overnight; percent of plate control window, DMSO zero | GFP/RFP ratio change, % at 20 µM | actives 0.061% (n = 360,000);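 active means GFP/RFP ratio change of at least 30% with cell ATP level not reduced by more than half and red fluorescence within 50% of control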; further: strong numbers were not always called active
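Assay system: HT1080 RFP-PRO-GFP cells | Dosing: 20 µM single dose, 1% DMSO | Incubation: Cells overnight before dosing, compound overnight, 37 °C, 5% CO2 | Evaluation: GFP/RFP fluorescence ratio | Control set: DMSO-only wells and HT1080 RFP-L50D-GFP cell wells as references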
eIF4H inh retest = second read-out of eIF4H inh, no call of its own (marks repeat the call); inhibition, %; compound at 20 µM; confirmation average;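 mean of two retest wells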
PABP FP inh retest = also measured in PABP FP inh; calls as there; inhibition, %; compound at 20 µM; confirmation repeats;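 mean of two retest wells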
MT1-MMP act inh RFP = recorded beside MT1-MMP act inh, whose call it bears; RFP signal change, %; measured here: RFP expression control read;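 0 = vehicle wells; hits needed this value within 50% of zero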
* hit, by the source's call; i = inactive; . = no result given; & = joins results of further samples; [ ] = remark or other dose.

SMILES | eIF4H inh | PABP FP inh | Env fusion inh | CSC inhib | Rce1 inh | Yeast UUG start | MT1-MMP act inh | MT1-MMP act inh RFP | others
Cc1ccc(-n2c(SCC(=O)NCCN3C(=O)CSC3=O)nnc2-c2cccc(C)c2)cc1 | -4 | 6 | 12 | -6 | i | -4 | -3 | 1
CCc1nn2c(=O)cc(CSCC(=O)Nc3ccccc3Cl)nc2s1 | -7 | 15 | . | . | i | -12 | 2 | 2
CS(=O)(=O)N1CCCC(C(=O)NCCCN2CCC(Cc3ccccc3)CC2)C1 (stereo not drawn) | -4 | 0 | . | -5 | i | -3 | -4 | 2
COc1ccc(CNCC(O)(c2ccc(F)cc2)c2ccc(F)cc2)cc1OC | -4 | 8 | 42 | 7 | i | 4 | -4 | -9
Oc1ccc(CN2CCCc3ccccc32)c2cccnc12 | 17 | 4 | . | 1 | i | . | -11 | -23
Fc1ccc(C2Nc3cccc4cccc(c34)N2)cc1 | 53* | 40* | 4 | -5 | i | -3 | -3 | 10 | eIF4H inh retest=100*;PABP FP inh retest=73*
COc1ccc([C@H]2CC(=O)C=C(c3cc(Cl)cc(Cl)c3)C2)cc1 | . | . | -4 | 28 | . | 12 | -3 | 3
O=C(CSc1nc2ccccc2s1)N1CCOCC1 | -5 | 10 | -31 | -5 | i | -22 | 3 | 1
O=C(NCc1ccc2c(c1)OCO2)c1n[nH]c(=O)c2ccccc12 | -5 | 2 | -6 | . | i | -14 | -5 | 5
Cc1ccc(NC(=O)CCCC(=O)O)c(-c2nc3ccccc3[nH]c2=O)c1 | 0 | -1 | 5 | 3 | i | -5 | 1 | 6
COc1cccc(CNc2ccc(Br)cn2)c1O | 0 | 8 | -139 | -8 | i | -32 | -2 | -1
CN(CC(=O)Nc1ccc(N2CCOCC2)cc1)C(=O)CSc1ccc(Br)cc1 | 9 | -4 | -54 | 2 | i | -2 | 5 | -1
Cn1c(=NC(=O)CS(=O)(=O)c2ccc(F)cc2)sc2ccccc21 | . | . | -12 | -5 | i | -6 | 0 | -1
CCO[C@@H]1OC(C(=O)NCc2ccccc2)=C[C@H](c2ccc(Br)cc2)[C@H]1CCCO | -2 | 9 | 11[16.7 µM] | -3 | i | 3&-14 | -4 | -6
O=C(Nc1ccncc1)c1cc2ccccc2cc1O | . | . | -57 | . | i | . | -13 | -16
Cc1ccc2nc(-c3ccccc3)oc(=O)c2c1 | -12 | -3 | -7 | -11 | i | -9 | . | .
CC(C)Sc1nc(NCc2ccco2)c2c3c(sc2n1)COC(C)(C)C3 | 17 | 22 | . | 16 | i | -16 | -6 | -1
Cc1ccc2oc(=O)c(/C=C(\O)C(C)(C)C)nc2c1 | 2 | 2 | 0 | 19 | i | . | 2 | 1
CC(C)(C)OC(=O)NCCCCCNC(=O)c1ncn2c1c(=O)[nH]c1ccccc12 | . | . | -4 | . | . | -11 | 1 | 2
C[C@H]1CN([C@@H](C)CO)C(=O)CCCn2cc(nn2)CO[C@@H]1CN(C)C(=O)Nc1ccc(N2CCCCC2)cc1 | . | . | 13 | . | . | -2&-23 | 3 | 5
Cc1onc(-c2c(F)cccc2Cl)c1C(=O)OCC(=O)c1c(N)n(C)c(=O)n(C)c1=O | -1 | -1 | 1 | 12 | i | 11 | -6 | -1
CC(=O)N1CCN(S(=O)(=O)c2c(C)n(C)c(=O)n(C)c2=O)CC1 | 6 | 7 | -9 | 2 | i | -14 | -3 | 2
Cc1cc2nc(/N=C(\N)NC(=O)C(C)C)nc(C)c2cc1C | -9 | 4 | -49 | 24 | i | -20 | -17 | -16
Cc1ccccc1C(=O)OC1CCCN(C)C1 (stereo not drawn) | -13 | 6 | -6 | -10 | i | -17 | -1 | 3
CC1=NN(c2ccccc2)C(=O)/C1=C\N1CC(C)OC(C)C1 (stereo not drawn) | -8 | -11 | -2 | 0 | i | -14 | 1 | 4
(listing goes on)
SMILES | eIF4H inh | PABP FP inh | Env fusion inh | CSC inhib | Rce1 inh | Yeast UUG start | MT1-MMP act inh | MT1-MMP act inh RFP | others
O=C(N/N=C/c1ccc(OCCCF)cc1)c1ccc(C(F)(F)F)cc1 | -9 | 1 | 12 | 11 | i | . | -1 | 1
Cn1c(=O)oc2cc(S(=O)(=O)Nc3ccc(Cl)cc3)ccc21 | -6 | 4 | 2 | -10 | i | -3 | -2 | 0
O=C(NNS(=O)(=O)c1ccccc1)c1cnn(-c2ccc(Cl)cc2)c1C(F)(F)F | 93 | 12* | -4 | 3 | i | . | 4 | -5 | eIF4H inh retest=49;PABP FP inh retest=102*
Cc1cccc(N2CCN(C(=O)c3ccc(CNc4c(N5CCC(C)CC5)c(=O)c4=O)cc3)CC2C)c1 (stereo not drawn) | 3 | -12 | 12 | -6 | i | . | -6 | -15
CCOC(=O)c1nc(N)c(=O)n(-c2ccccc2)n1 | -7 | -6 | . | -8 | i | -11 | 3 | 5
Cc1nc2ccccc2n1/C(=N/S(=O)(=O)c1ccc(Br)cc1)c1ccccc1 | 6 | -1 | . | -3 | i | . | . | .
Cc1cc(C)c2c(NC(=O)C3CC3)nn(C)c2n1 | -2 | 0 | -5 | 4 | i | . | 1 | 3
COCCNC(=O)c1c[nH]c2ccc(S(=O)(=O)N3CCC4(CC3)OCCO4)cc2c1=O | 4 | -1 | . | . | i | -3 | -7 | -2
CCOc1ccc(-n2c(C)nc3c(cnn3-c3ccc(Cl)cc3)c2=O)cc1 | -4 | -8 | . | . | i | -10 | 3 | 2
CC(=O)Cn1c(=O)oc2ccccc21 | 5 | 6 | 11 | -1 | i | -12 | -1 | 2
CC(C)CN(C(=O)COc1ccc(-c2nnco2)cc1)C1CCS(=O)(=O)C1 (stereo not drawn) | 8 | 2 | -16 | -5 | i | -15 | 3 | 3
Cc1cc(C(O)c2ncc(-c3cccc(F)c3)[nH]2)ccc1F (stereo not drawn) | . | . | 15 | . | . | -23 | 0 | -2
COc1ccc(/C=C2/CCc3ccccc3C2=O)cc1CN1CCOCC1 | -2 | 9 | . | 5 | i | -25 | 0 | -8
CCOC(=O)c1ccc(NC(=O)NCc2ccc(OC)cc2)cc1 | -5 | 22 | -5 | 0 | i | . | 4 | -1
O=C(Cc1cccc(F)c1)Nc1ccc2c(c1)CCC2 | -10 | -6 | 1 | -9 | i | . | 0 | -2
Cc1noc(C)c1S(=O)(=O)NC(=O)C1(C)CCN1C(=O)Cc1ccc(Cl)cc1Cl (stereo not drawn) | . | . | 5 | . | . | -15 | -1 | 6
O=C(O)c1ccc(Cl)c(NC(=O)C2CCN(S(=O)(=O)c3ccc4c(c3)OCCO4)CC2)c1 | . | . | 4 | . | . | -19 | -1 | 3
CC(=O)N1N=C(c2ccc(Cl)cc2)OC1(C)C | 8 | 7 | 5 | -14 | i | . | 2 | 6
COc1ccc(C2C(C(C)=O)=C(O)C(=O)N2Cc2cccnc2)cc1 (stereo not drawn) | 5 | -8 | . | -8 | . | -8 | 12 | -1
C=CCOc1ccc(C2C3=C(CCCC3=O)N(CC(=O)O)C3=C2C(=O)CCC3)cc1OCC | 22 | 7 | 6 | -6 | i | -15 | -4 | 4
COc1ccc(CN=C2NC(=O)CC(C(=O)Nc3ccc([N+](=O)[O-])cc3C)S2)cc1 (stereo not drawn) | -5 | 1 | 13 | . | . | . | 3 | 0
CCCN1C(=O)/C(=C2\SC(=S)N(c3c(C)n(C)n(-c4ccccc4)c3=O)C2=O)c2ccccc21 | -5 | 14 | . | 7 | i | . | . | .
CCOC(=O)c1c(C)n(C)c2ccc(OC)c(NC(=O)CN3CCCCC3)c12 | -9 | 10 | -65 | -1 | . | 5 | 2 | 3
Cn1c(SCC(=O)Nc2nccs2)nnc1-c1ccncc1 | 14 | 24 | -3 | -18 | i | -6 | 0 | 6
CCCCC(=O)Nc1nnc(CCOC)s1 | 1 | 4 | 6 | -18 | i | . | 1 | -3

6 structures from above, ordered by SMILES length, falling.
SMILES | eIF4H inh | PABP FP inh | Env fusion inh | CSC inhib | Rce1 inh | Yeast UUG start | MT1-MMP act inh | MT1-MMP act inh RFP | others
O=C(O)c1ccc(Cl)c(NC(=O)C2CCN(S(=O)(=O)c3ccc4c(c3)OCCO4)CC2)c1 | . | . | 4 | . | . | -19 | -1 | 3
CCOc1ccc(-n2c(C)nc3c(cnn3-c3ccc(Cl)cc3)c2=O)cc1 | -4 | -8 | . | . | i | -10 | 3 | 2
CCOC(=O)c1nc(N)c(=O)n(-c2ccccc2)n1 | -7 | -6 | . | -8 | i | -11 | 3 | 5
O=C(Cc1cccc(F)c1)Nc1ccc2c(c1)CCC2 | -10 | -6 | 1 | -9 | i | . | 0 | -2
CC(=O)N1N=C(c2ccc(Cl)cc2)OC1(C)C | 8 | 7 | 5 | -14 | i | . | 2 | 6
CC(=O)Cn1c(=O)oc2ccccc21 | 5 | 6 | 11 | -1 | i | -12 | -1 | 2

Further records:
SMILES | eIF4H inh | PABP FP inh | Env fusion inh | CSC inhib | Rce1 inh | Yeast UUG start | MT1-MMP act inh | MT1-MMP act inh RFP | others
O=C(NCc1ccc2c(c1)OCO2)C1Cc2ccccc2CN1C(=O)c1ccco1 (stereo not drawn) | 6 | -3 | -12 | 7 | i | . | 2 | 5
CCN(CC)c1ccc2c(C)c(Cl)c(=O)oc2c1 | 20 | 15 | 2 | -7 | i | . | 1 | 3
O=C(CN1CCOCC1)OCCCC1CCCCC1 | 3 | 5 | -45 | -13 | i | -11 | -1 | 5
CCCCNc1c(N)n(CCC)c(=O)[nH]c1=O | 63 | -3 | 15 | 10 | i | -8 | 2 | 3 | eIF4H inh retest=8;PABP FP inh retest=3
CCOC(=O)C1C(c2ccc3c(c2)OCO3)NC(=O)NC1(O)C(F)(F)F (stereo not drawn) | -5 | -3 | . | . | i | -16 | 0 | 1
CCn1nc2cc(C(=O)NCCc3cccs3)ccc2c1OC | -7 | 2 | . | 1 | i | -32 | 8 | 2
O=C(c1ccc(Cl)cc1)n1c(NCc2ccccc2)n[nH]c1=S | 1 | -4 | -1 | -5 | i | . | 1 | 3
CN(CC(=O)Nc1ccc(S(=O)(=O)N2CCCC2)cc1)Cc1ccc(Cl)cc1 | -3 | -16 | 9 | 9 | i | 9 | -4 | -4
CC1Cc2nc(SCC(=O)NCc3ccco3)n(Cc3ccccc3)c(=O)c2S1 (stereo not drawn) | 1 | 6 | 12 | -8 | i | 3 | 3 | 1
O=C1c2cccc3c([N+](=O)[O-])ccc(c23)C(=O)N1c1ccccn1 | 25 | 24 | -331 | 105* | i | -16 | -241 | 1
CN(Cc1ccc(Cl)cc1Cl)C(=O)c1cc(=O)c2ccccc2o1 | -12 | 4 | 10 | 2 | i | 1 | 1 | -4
O=S1(=O)NC(=NC2CCCCCC2)c2ccccc21 | 0 | 8 | 6 | -9 | i | -11 | 6 | 0
COc1ccc(C2=NN(S(C)(=O)=O)C(c3cccs3)C2)cc1OC (stereo not drawn) | 9 | 2 | -33 | 6 | i | . | -1 | -4
CN(C)CCN(Cc1ccccc1)c1ccnc(N(C)C)c1C#N | 9 | 3 | . | -5 | i | -1 | -2 | -2
CSc1sc(C(=O)NCC2CC2)cc1S(=O)(=O)C(C)C | -14 | 4 | -8 | -15 | i | -2 | 0 | -2
Cc1ccc(/C=C/C(=O)N2CCc3ccccc3C2)cc1 | -8 | -4 | . | -5 | i | -7 | 3 | 1

Grouped by structure, those above containing a tert-butyl group
SMILES | eIF4H inh | PABP FP inh | Env fusion inh | CSC inhib | Rce1 inh | Yeast UUG start | MT1-MMP act inh | MT1-MMP act inh RFP | others
Cc1ccc2oc(=O)c(/C=C(\O)C(C)(C)C)nc2c1 | 2 | 2 | 0 | 19 | i | . | 2 | 1
CC(C)(C)OC(=O)NCCCCCNC(=O)c1ncn2c1c(=O)[nH]c1ccccc12 | . | . | -4 | . | . | -11 | 1 | 2

An excerpt; count on the stated rates, not on these rows.
